From PubChem
Six1-Eya2 blk: inhibitors of human Six1/Eya2 interaction; Q15475+O00167; AlphaScreen GST-Six1/His-Eya2 binding, biochemical; hits give low values; control for the full effect not named in the record; activity change, % (no concentration beside the values); hit rate 0.56% among 360,000; AID 651725; in the data active = activity change below about -65%; inconclusive = about -30% to -65%; inactive = above about -30%; also: % is scaled to controls: 0 for no effect and ±100 for the full control effect; compound concentration not given in the record
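AlphaScreen luminescence read after one hour at 37 °C in darkness. Pin-transferred compounds met GST-Six1 and His-Eya2 protein (5X stock 250 nM/500 nM) plus glutathione donor and Ni-chelate acceptor beads (5X, 50 ug/mL).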
TRPML1 agonist: human mucolipin-1 channel agonism; Q9GZU1; TRPML1-expressing cells, Ca2+ dye fluorescence, FDSS; host cell line not named in the record; reference of the full effect not given here; AID 624414; hit rate 0.12% among 410,000; activation, % (test concentration not listed); in the data active = activation above about 50%; inconclusive = about 30% to 50%; inactive = below about 30%; also: 0% is about no effect; the text of the record puts the active cut at 80%
Target sequence (Q9GZU1 whole entry, looked up): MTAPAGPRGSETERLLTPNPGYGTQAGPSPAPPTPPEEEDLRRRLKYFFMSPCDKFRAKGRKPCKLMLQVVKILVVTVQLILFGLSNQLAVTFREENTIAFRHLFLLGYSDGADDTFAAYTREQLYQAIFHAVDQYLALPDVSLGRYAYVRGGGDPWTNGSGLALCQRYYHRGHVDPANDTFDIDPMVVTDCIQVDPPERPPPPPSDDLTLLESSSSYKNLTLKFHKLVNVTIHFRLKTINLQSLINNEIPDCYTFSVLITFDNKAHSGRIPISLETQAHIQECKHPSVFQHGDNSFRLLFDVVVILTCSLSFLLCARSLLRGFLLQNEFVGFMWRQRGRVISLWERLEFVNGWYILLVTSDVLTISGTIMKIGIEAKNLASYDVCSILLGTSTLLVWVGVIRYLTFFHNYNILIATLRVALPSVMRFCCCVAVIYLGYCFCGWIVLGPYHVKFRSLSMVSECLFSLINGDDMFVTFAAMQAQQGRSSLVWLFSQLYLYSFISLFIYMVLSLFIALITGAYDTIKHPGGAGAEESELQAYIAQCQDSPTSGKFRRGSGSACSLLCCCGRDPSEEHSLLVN
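In this qHTS format, compounds were pin-transferred onto Ca8-dye-loaded TRPML1-DL cells induced with Tet overnight, and intracellular Ca2+ fluorescence was recorded kinetically for 110 s after a 10 s baseline. A subsequent 4uM final 54-4 (EC80) addition followed by a second 110 s read served as the antagonist phase.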
D2 potentiator: human D2 receptor positive allosteric modulation; DiscoveRx D2 beta-arrestin cells, luminescence, 90 min; 100% = 57 uM dopamine signal; potentiation, % (no concentration beside the values); hit rate 0.23% among 360,000; AID 624464; active = potentiation of 50% or more; inconclusive = 30% to 50%; inactive = 30% or less;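 also: compound concentration not given in the record; tested on top of an EC20 dose of dopamine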
Target sequence (P14416 whole entry, looked up): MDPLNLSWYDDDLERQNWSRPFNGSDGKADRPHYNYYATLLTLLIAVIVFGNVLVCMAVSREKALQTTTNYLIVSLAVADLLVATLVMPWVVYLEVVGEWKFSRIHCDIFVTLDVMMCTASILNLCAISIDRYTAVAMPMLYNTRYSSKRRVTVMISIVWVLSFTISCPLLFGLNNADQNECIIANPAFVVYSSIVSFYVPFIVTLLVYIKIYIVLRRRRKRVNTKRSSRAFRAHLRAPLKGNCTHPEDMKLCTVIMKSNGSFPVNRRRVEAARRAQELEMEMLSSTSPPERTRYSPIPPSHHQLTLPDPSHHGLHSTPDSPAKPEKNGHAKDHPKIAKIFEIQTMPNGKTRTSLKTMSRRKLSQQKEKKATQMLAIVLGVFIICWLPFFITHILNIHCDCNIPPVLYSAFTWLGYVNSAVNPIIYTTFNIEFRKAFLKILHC
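PathHunter D2 cells, attached overnight at 37 deg C, received compound in DMSO plus dopamine at EC20 (50 nM final) for 90 min at 37 deg C. Beta-arrestin recruitment was read as luminescence after 1 h with detection reagent at ambient temperature.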
TRPV1 PAM: human TRPV1 potentiation. potentiation, % at 8.33 µM. TRPV1-expressing cells, Fluo-8 calcium influx, capsaicin EC20 potentiation; host cell line not named in the record; control for the full effect not named in the record. hit rate 0.02% among 320,000. Q8NER1; active means potentiation above 80%; inconclusive means 30% to 80%; inactive means below 30%; also: 0% is about no effect
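TRPV1-expressing cells were cultured overnight at 35.5C and loaded with Fluo-8 calcium dye for 40 to 90 min at room temperature. After a 10 s baseline, compound was added and calcium influx was read kinetically for 3 min (ex 480/em 520 nm).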
CtBP-E1A inh: blocks the CtBP interaction with E1A; activity change, % (concentration not given with the values); AlphaScreen GST-E1A/His-CtBP binding, 1536-well; hits give low values; control for the full effect not named in the record; hit rate 0.49% among 340,000; in the data active means activity change below about -65%; inconclusive means about -30% to -65%; inactive means above about -30%; also: % is scaled to controls: 0 for no effect and ±100 for the full control effect
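In 5 uL wells, 23 nL compound meets equimolar GST-E1A and His-CtBP (5X stock 125 nM each) for 2 h, 37 °C. Beads (5X, 50 ug/mL) then 1 h, 37 °C, dark.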
TRPML1 blocker: human mucolipin-1 channel inhibition; AID 624415; hit rate 0.02% among 390,000; TRPML1-inducible cells, Ca2+ dye fluorescence, FDSS; hits give low values; inhibition of EC80 agonist-evoked calcium signal; Q9GZU1; activity change, negative = inhibition, % (test concentration not listed); in the data active means activity change below about -50%; inconclusive means about -30% to -50%; inactive means above about -30%;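 also: stimulus is agonist 54-4 at its EC80 concentration; % is scaled to controls: 0 for no effect and ±100 for the full control effect; compound concentration not given in the record; the text of the record puts the active cut at -80%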
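Tet-induced TRPML1-DL cells loaded with Ca8 no-wash calcium dye were read kinetically on FDSS. Compound addition was followed by EC80 agonist 54-4 (4 uM final); inhibition was read over 110 s.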
Active calls of the source: *; ? = inconclusive; nt = not tested or not shown; & = joins results of further samples.

SMILES	Six1-Eya2 blk	TRPML1 agonist	D2 potentiator	TRPV1 PAM	CtBP-E1A inh	TRPML1 blocker
O=C(Nc1ccccc1)Nc1ccc(Cl)c(S(=O)(=O)N2CCOCC2)c1	0	2.5	1	-2	-15	-3
CC(C)CN1CCN(CCCc2ccccc2)C(CCO)C1 (configuration not stated)	2	0.6	-8	-7	2	8
O=C(COC(=O)c1cccc(S(=O)(=O)N2CCc3ccccc32)c1)Nc1ncc(Cl)cc1Cl	3	-0.1	0	-2	-24	30
N#Cc1ccccc1Sc1ccccc1C(=O)OCC(=O)N1CCN(C(=O)c2ccco2)CC1	-1	1.7	1	-2	2	1
CN(Cc1ccccc1)c1nc(CN2CCOCC2)nc2scc(-c3ccccc3)c12	-24	1.7	-17	-18	-20	60
O=C(Nc1nccs1)C12CC3CC(C1)CC(C(=O)Nc1nccs1)(C3)C2	31	4.9	-34	-22	24	-12
O=S(=O)(c1ccc(F)cc1)N1CC=C(c2ccccc2)CC1	11	-1.2	-25	-2	nt	-5
O=C(O)c1ccc(C(=O)Nc2cccc(NC(=O)C3CCCO3)c2)cc1 (configuration not stated)	2	0.7	-10	6	6	-3
O=C(NS(=O)(=O)N1CCOCC1)C1=C(N2CCCC2)COC1=O	-17	-0.3	-7	nt	-1	6
COc1cc(C(=O)N(C(C)C)C2CCCCC2)cc(OC)c1OC	4	-0.8	-7	nt	1	-12
CCCCCCNC(=O)N1C/C=C\C(c2ccc(OC)cc2)N(Cc2ccc(F)cc2)C(=O)C1 (configuration not stated)	3	2.4&0.1	-7	?	6	-4&34
COc1ccc(NC(=S)N2CCCCCC2)cc1OC	2	2.2	-23	5	nt	-20
O=C(NCC(c1ccc(F)cc1)N1CCOCC1)c1cccnc1Sc1ccccc1Cl (configuration not stated)	-6	0.7	-15	12	8	-30
C/C(CC(=O)NCc1ccc(Cl)cc1)=N\NC(=O)c1ccccc1F	-7	-0.3	-5	-16	-16	11
O=c1c2cc(NC(=S)NCc3cccnc3)ccc2nc2n1CCCCC2	1	-0.4	2	-10	4	0
O=C(C[C@H]1C[C@H](C(=O)N2CCCCC2)[C@@]2(CCc3ccccc3)c3[nH]c4cc(-c5ccco5)ccc4c3CCN2C1=O)NCc1ccco1	-17	3.2	-5	nt	-21	11
CCCc1nn(C)c(C(=O)Nc2cccc(CC)c2)c1Cl	55	2.1	11	-5	88	-6
Cc1cc(NC(=O)Nc2cccc3ccccc23)no1	-1	-0.4	-12	-3&-13	-1	2
CC(=O)Nc1ccccc1OCc1nnc(-c2cccs2)o1	9	0.1	-17	-27	0	-17
O=C(O)CCc1ccc(-c2cccs2)n1NC(=O)c1ccc(O)cc1	-1	0.5	-19	1	1	13
COc1ccc(Cc2nnc(SCC(=O)Nc3ccccc3C)n(N)c2=O)cc1	1	0.1	11	2	-1	-2
CN1C(=O)C2(NC(=O)c3ccccc3N2C)c2ccccc21 (configuration not stated)	1	0.2	-7	-4	-1	-17
Cc1nnc(SCC(=O)Nc2ccccc2NC(=O)CSc2nnc(C)s2)s1	-20	0.1	-5	1	3	2
Cc1cc(C)n(C(=O)CSc2nnc(SCC(=O)n3nc(C)cc3C)s2)n1	-5	-0.7	7	-1	5	8
O=C(Cn1c(-c2ccccc2)noc1=O)NCc1ccccc1	2	3.8	8	-21	-3	11
O=C(COc1ccc2cc(Br)ccc2c1Br)N1CCOCC1	19	0.5	6	11	8	-4
CCOc1ccc(NC(=O)CSCc2cnn(-c3ccccc3)c2-n2cccc2)cc1	-15	2.4	-1	17	-12	8
Cc1ccc(-n2nc3c(=O)n(CCCC(=O)NCc4ccccc4F)nc(C)c3c2C)cc1	-4	-0.9&3.4	-5	10	-3	-5&34
COc1cc(NC(=O)CS(=O)(=O)c2ccc(C)cc2)cc(OC)c1OC	2	-0.2	-8	-1	4	-14
CC(=O)Nc1cccc(NC(=O)C2CCN(C(=O)c3ccco3)CC2)c1	9	0.1	-6	1	5	-18
CCc1ccc(-c2cc(C(F)(F)F)n3nc(C(=O)Nc4c(C)nn(Cc5ccccc5C)c4C)cc3n2)s1	7	1.6	7	0	0	4
O=C(COC(=O)c1c(Cl)cccc1Cl)NC1CCCCCCC1	14	-1.9	1	nt	nt	-1
CCOc1ccc(N=C(/C(C(=O)C(=O)N2CCOCC2)=C(\O)c2ccccc2)c2ccccc2)cc1	9	2.4	-21	-10	10	8
Cc1cccn2c(=O)c3cc(C(=O)N4CCCC(C)C4)sc3nc12 (configuration not stated)	-5	-0.1	-2	-30	6	2
N#CC1(Nc2ccc(-c3ccc(Cl)cc3)cc2)CCCC1	-16	0.9	-15	nt	8	6
Cc1ccc(C(=O)N2CCN(C(=O)c3ccco3)CC2)cc1NC(=O)c1ccco1	-2	-0.5	1	-12	4	1
COC(=O)c1ccc(C(=O)Nc2cc(Cl)ccc2Cl)cc1NC(=O)c1ccccc1C	5	0.4	3	15	3	44
O=C(CSc1ncnc2scc(-c3ccc(Cl)cc3)c12)NCc1ccc2c(c1)OCO2	-1	0.9	-21	9	-1	4
Cc1ccc([C@@H]2[C@@H]3C(=O)N(C)C(=O)[C@@H]3[C@]3(C)C(=O)N(CCO)CC(=O)N23)o1	2	0.5	-2	28	6	-2
Cc1ccc(C)c(S(=O)(=O)N2CCN(C(=O)c3ccccn3)CC2)c1	-5	-0.3	-2	-7	6	5
CN(C)/C=C/C(=O)/C=C/c1cn(-c2ncc(C(F)(F)F)cc2Cl)c2ccccc12	-10	0.0	0	6	0	-2
COc1ccc(CC2SC(N)=NC2=O)cc1 (configuration not stated)	-5	0.6	1	-10	1	-4
O=C(O)c1ccccc1C(=O)c1ccc(Cl)cc1	5	0.2	-9	nt	nt	-11
CN(c1ccccc1)S(=O)(=O)c1cccc(NC(=O)c2ccncc2)c1	-8	0.2	-5	19	-2	-27
CCc1cc(CN2CCOCC2)c(NC(=O)c2ccccc2)s1	8	-0.7	-26	-22	-14	8
NC(=O)NCC(c1ccccc1)C1CCCCC1 (configuration not stated)	11	nt	-8	-13	nt	nt
Cc1ccc(C2C=NN(c3ccccc3)C2=O)cc1 (configuration not stated)	4	0.0	0	8	nt	9
COc1ccccc1CC(=O)Nc1cc2oc3ccccc3c2cc1OC	5	1.5	-14	4	9	14
CCOC(=O)COn1c(=O)c[n+]([O-])c2ccccc21	0	1.0	-14	1	6	-1
O=C(O)CN1C(=O)c2ccc(C(=O)c3ccccc3)cc2C1=O	-16	nt	-5	3	-6	nt
CCN1C(=O)[C@H]2[C@H]3CN=C(SCc4ccc(C)cc4)N3[C@@](C)(C(=O)OC)[C@H]2C1=O	12	0.8	0	nt	7	7
O=C1CC(c2ccc(OCCCCCOc3ccc(C4CC(=O)NC4=O)cc3)cc2)C(=O)N1 (configuration not stated)	-4	2.5	8	-1	-9	17
CCn1c(=O)c2cc(C(=O)NCCCOC)sc2c2ccccc21	-4	1.2&-0.6	-10	-19	-7	3&27
CN(Cc1ccccc1)C(=O)C1CCN(S(=O)(=O)c2cccc3nsnc23)CC1	-1	0.7	-2	-1	9	-5
O=C(NCc1cccnc1)c1cc(C2CCCCN2C(=O)c2cccs2)on1 (configuration not stated)	-3	-0.4	1	nt	1	nt
CCN(C(=O)c1ccc(N2CC3CC(C2)c2cccc(=O)n2C3)c(NC(=O)c2ccncc2)c1)c1cccc(C)c1 (configuration not stated)	-13	-0.3	-13	15	-22	-4
CCSc1ccccc1C(=O)N1CCN(c2ccccc2F)CC1	3	0.5	-10	-8	0	-11
CCOC(=O)c1sc(=NC(=O)c2ccccc2Br)n(C)c1C	3	0.8	-5	10	-4	-11
CC(C)[C@@H]1CC[C@@H](C)C[C@H]1OC(=O)C[n+]1cc(-c2ccc(Cl)cc2)n2c1CCCCC2	-1	2.2	-5	1	-7	42
OC1(c2ccccc2F)CCN(Cc2nnc(-c3ccccc3)o2)CC1	-4	1.8	-18	0	-2	15
Going on with the list.
SMILES	Six1-Eya2 blk	TRPML1 agonist	D2 potentiator	TRPV1 PAM	CtBP-E1A inh	TRPML1 blocker
CC(=O)N1CCN(CCS(=O)(=O)c2ccc(Br)cc2)CC1	0	0.1	-11	?	8	-3
O=C(C[n+]1ccccc1)Nc1ccc(Oc2ccccc2)cc1	0	-0.2	-4	-7	-5	-20
O=C1NC(c2ccc(Br)cc2)Nc2ccccc21 (configuration not stated)	-15	-1.1	-24	3	0	-1
Cc1ccc(C(=O)NC(=S)NCc2ccco2)cc1	-8	2.1	-11	-8	1	-16
O=C(NCCCN1CCOCC1)c1ccc2c(=O)n(Cc3cccc(Br)c3)c(=S)[nH]c2c1	-20	0.3	-1	0	-6	?
CCc1ccc(C(N)=S)cc1	-7	0.4	-11	4	3	-8
CC(=O)c1c(C)[nH]c(C2=NNC(=NCc3ccccc3)SC2)c1C	-10	4.9	-9	4	-21	41
Cc1cccc(CCN2CCN=C2Nc2ccccc2)c1	2	13	-20	27	7	13
CCCC(CCC)=NNc1ccc(S(=O)(=O)Nc2ccccc2OC)cc1[N+](=O)[O-]	?	11	-19	-25	?	?
CCOC(=O)N1CCC(NC(=O)CN2C(=O)CSc3ncccc32)CC1	6	0.7	-5	11	5	16
O=C(CNC(=O)C1CCCC1)Nc1ccccc1Br	-1	-0.3	-19	3	15	-3

A second format for part of the listing above.
mol | Six1-Eya2 blk | TRPML1 agonist | D2 potentiator | TRPV1 PAM | CtBP-E1A inh | TRPML1 blocker
O=C(NCCCN1CCOCC1)c1ccc2c(=O)n(Cc3cccc(Br)c3)c(=S)[nH]c2c1 | -20 | 0.3 | -1 | 0 | -6 | ?
CC(=O)c1c(C)[nH]c(C2=NNC(=NCc3ccccc3)SC2)c1C | -10 | 4.9 | -9 | 4 | -21 | 41

By substructure, the compounds so far with a thiophene ring, fused or not (9)
SMILES	Six1-Eya2 blk	TRPML1 agonist	D2 potentiator	TRPV1 PAM	CtBP-E1A inh	TRPML1 blocker
CN(Cc1ccccc1)c1nc(CN2CCOCC2)nc2scc(-c3ccccc3)c12	-24	1.7	-17	-18	-20	60
CC(=O)Nc1ccccc1OCc1nnc(-c2cccs2)o1	9	0.1	-17	-27	0	-17
O=C(O)CCc1ccc(-c2cccs2)n1NC(=O)c1ccc(O)cc1	-1	0.5	-19	1	1	13
CCc1ccc(-c2cc(C(F)(F)F)n3nc(C(=O)Nc4c(C)nn(Cc5ccccc5C)c4C)cc3n2)s1	7	1.6	7	0	0	4
Cc1cccn2c(=O)c3cc(C(=O)N4CCCC(C)C4)sc3nc12 (configuration not stated)	-5	-0.1	-2	-30	6	2
O=C(CSc1ncnc2scc(-c3ccc(Cl)cc3)c12)NCc1ccc2c(c1)OCO2	-1	0.9	-21	9	-1	4
CCc1cc(CN2CCOCC2)c(NC(=O)c2ccccc2)s1	8	-0.7	-26	-22	-14	8
CCn1c(=O)c2cc(C(=O)NCCCOC)sc2c2ccccc21	-4	1.2&-0.6	-10	-19	-7	3&27
O=C(NCc1cccnc1)c1cc(C2CCCCN2C(=O)c2cccs2)on1 (configuration not stated)	-3	-0.4	1	nt	1	nt
